# Screening results from PubChem.
# GLA inh pH 4.5 = blocks human alpha-galactosidase A at pH 4.5; P06280; purified enzyme, 4-MU-alpha-Gal fluorescence, pH 4.5; activity change, negative = inhibition, % at 105 µM; 230,000 tested, under 10 active; inconclusive = small, poorly fitted or top-dose-only inhibition, or a rising curve; inactive = flat fitted curve, though single readings scatter; no compound was filed as active;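 note: 0% = full activity with enzyme and -100% = basal without enzyme; dose as in the result columns while the protocol names 77 µM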
# Target sequence (P06280 whole entry, looked up): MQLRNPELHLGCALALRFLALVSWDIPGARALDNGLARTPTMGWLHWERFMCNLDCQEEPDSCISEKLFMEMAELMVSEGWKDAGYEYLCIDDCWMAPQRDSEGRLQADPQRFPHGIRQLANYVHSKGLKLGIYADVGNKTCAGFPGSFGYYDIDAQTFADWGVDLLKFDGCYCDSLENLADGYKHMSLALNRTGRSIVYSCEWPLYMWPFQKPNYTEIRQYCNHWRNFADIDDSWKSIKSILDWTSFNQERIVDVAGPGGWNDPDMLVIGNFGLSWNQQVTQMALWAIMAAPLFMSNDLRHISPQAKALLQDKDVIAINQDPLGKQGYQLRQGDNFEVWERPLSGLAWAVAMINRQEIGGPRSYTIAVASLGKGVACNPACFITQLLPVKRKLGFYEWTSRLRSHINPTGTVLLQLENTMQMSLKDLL
# Rango-impB inh = inhibitors of Rango-importin beta complex formation; Q14974; Rango CFP/YFP FRET sensor + importin beta, 45 min; Potency, µM (top dose mostly 92.2 µM), without a hit: at the top dose inhibition of complex formation; hit rate 0.031% among 340,000; active = rising FRET ratio curve, often small or poorly fitted; inconclusive = mostly compound fluorescence or quenching in the first reads; inactive = flat curves in all reads;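 note: potency is the fitted concentration of half-maximal effect; 0% = DMSO wells and 100% = buffer wells lacking importin beta; nearly all actives have a fitted effect of over 15% in size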
#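 Inhibition scored from the CFP 486 nm/YFP 530 nm FRET ratio 45 min after adding 0.125 microM importin beta to 50 nM Rango biosensor preincubated 5 min with compound (room temperature, PBS with DTT, Tween-20, BSA). No-importin wells as positive control.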
# miR-21 FLuc = raises the signal of a miR-21 reporter; HeLa miR-21 FLuc reporter, luciferase, 48 h; Potency, µM (series often up to 38.3 µM), for the others: at the highest dose reporter change, positive = more light; 340,000 tested, under 10 active; active = well fitted rising curve with a large enough effect; inconclusive = small, poorly fitted or top-dose-only effect; inactive = no such curve, though single readings can be large or run the other way;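 note: % of control where 0% means no effect; miR-21 action dims this reporter so a rising signal means less miR-21 action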
#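 HeLa cells endogenously expressing miR-21, stably carrying CMV-driven firefly luciferase with a downstream miR-21 binding site, 2000 cells/well. Titrations up to approximately 40 uM, 48 hours; luciferase luminescence read.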
# Rango release inh = inhibition of RanGTP-driven Rango-importin beta dissociation; Biochemical FRET Rango-importin beta, RanGTP-induced dissociation; O95149+P62826; Potency, µM (highest dose often 46.1 µM), for inactives: top-dose activity change, negative = inhibition; hit rate 0.071% among 340,000; active means falling FRET ratio curve, often poorly fitted, with flat reads before Ran was added; inconclusive means other falling curves, or compound fluorescence or quenching; inactive means flat or rising ratio curve;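 note: potency is the fitted concentration of half-maximal effect; % of control where 0% means no effect; nearly all actives have a fitted effect of over 45% in size; -100% = wells without RanGTP and RCC1; the record marks most hits as doubtful in a second field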
#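 Rango/importin beta premix (0.1/0.25 uM final), PBS + 1 mM DTT + 0.02% Tween-20 + 0.1% BSA; cpd 5 min RT; FRET pre-read; + RanGTP-RCC1 (0.6 uM Ran, 2 mM GTP, 0.2 uM RCC1); 45 min RT; FRET post-read, ex 430, em 486/530 nm.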
# * = called active by the depositor; ? = inconclusive; nt = not tested or not shown; & = joins results of further samples. These rows are one share of the data (hit frequency here may not be typical).
SMILES,GLA inh pH 4.5,Rango-impB inh,miR-21 FLuc,Rango release inh
FC(F)(F)c1ccc(N2CCN(Cc3ccc4c(c3)OCO4)CC2)nc1,-3,-0.1%,-4%,7%
Cc1ccc(NC(=O)Nc2cccc3ccccc23)cc1,nt,2.5%,-9%,0%
CCN1C(=NCCOC)N[C@@H](c2cccc(C(F)(F)F)c2)C(C(=O)OC)=C1C,nt,?,2%,-9%
O=C(Nc1nnc(SCc2ccc(F)cc2)s1)c1ccc2ncsc2c1,9,-2.0%,-59%,2%
CC(CNS(=O)(=O)c1ccc(Cl)cc1)n1cncn1 (stereo not drawn),nt,3.4%,-1%,-4%
O=C(COC(=O)/C=C/c1ccc(F)cc1)NC1CCCCCC1,nt,4.4%,nt,7%
COc1cc([N+](=O)[O-])ccc1NC(=O)CCCOc1ccccc1,-1,1.4%,-12%,0%
CCn1c(C)cc(C(=O)CSc2nnc(-c3ccco3)o2)c1C,nt,5.4%,nt,9%
Cc1cc(C)c(S(=O)(=O)NCCOc2ccccc2)c(C)c1-n1cnnn1,-2,-0.8%,5%,-4%
O=C1NC(=Nc2ccccc2)S/C1=C\c1cccn1-c1ccccc1,2,?,-6%,-1%
Cc1cccc(-c2nnc(SCC(=O)N3CCOCC3)o2)c1,nt,4.0%,-40%,1%
O=c1cc(O)c2ccc(O)cc2o1,9,4.3%,-3%,13%
COc1ccc2nc3sc(C(=O)NCCCN4CCc5ccccc5C4)cc3cc2c1,-2,0.7%,-42%,3%
COC(=O)c1ccc(NC(=O)COC(=O)C2CCC2)cc1,nt,4.6%,nt,-3%
COc1cc(-c2nnn(CC(=O)NC3CCS(=O)(=O)C3)n2)ccc1OCc1ccccc1 (stereo not drawn),1,-0.2%,-53%,24%
Cc1c(C(=O)O)oc2ccc(S(=O)(=O)N3CCC(C)CC3)cc12,-11,-4.6%,-3%,-5%
COC(=O)c1cc(Br)c(=O)n(Cc2ccc(OC)c(OC)c2)c1,3,2.5%,-7%,-19%
COc1cc2cnc(CCCC#N)cc2cc1OC,nt,-1.8%,nt,-11%
COc1cc(C(=O)N/N=C/c2ccc(OC(=O)c3ccccc3Cl)c(OC)c2)ccc1O,nt,2.0%,4%,-5%
COc1ccc2nc(N(CCN(C)C)C(=O)/C=C/c3cccs3)sc2c1,-8,?,?,-13%
CCN1CCCC1CNC(=O)C(=O)NC(C)C (stereo not drawn),2,-3.7%,1%,-7%
O=C(O)CCN1C(=O)c2ccc(Oc3ccc([N+](=O)[O-])cc3)cc2C1=O,nt,5.6%,-3%,11%
CCOC(=O)Cn1c(=O)c(-c2cc(Br)ccc2N)nc2ccccc21,8,7.3%,-6%,2%
CC(C)(C)OC(=O)C[C@@H]1C/C=C\C[C@H](CC(=O)N(CCO)Cc2ccccc2)C(=O)N[C@@H](Cc2ccccc2)COC1=O,nt,5.0%,nt,-14%
CCCCn1c(N)c(N(CCC(C)C)C(=O)COC(=O)/C=C/c2ccc(F)cc2)c(=O)[nH]c1=O,nt,0.4%,nt,1%
CC1=N/C(=C/c2cc(Br)cc(Br)c2O)C(=O)O1,nt,3.9%,2%,9%
Cc1ccc(CNC(=O)COc2ccc(C(=O)c3ccc(F)cc3)cc2)cc1,3,-6.1%,4%,-5%
CCN(CC)S(=O)(=O)c1ccc2nc(COC(=O)c3n[nH]c4ccccc34)[nH]c2c1,-13,0.1%,-7%,-7%
COc1ccc(C(=O)Nc2ccc(C)cc2C(=O)c2ccccc2)c(OC)c1,-5,-2.1%,-5%,-10%
COc1ccc(OC)c(NS(=O)(=O)c2cc(OC)ccc2OC)c1,0,-0.9%,-3%,-17%
COCCN=C1N[C@@H](c2ccc(Br)cc2)C(C(=O)OC)=C(C)N1Cc1ccccc1,nt,-4.7%,-2%&14%,0%
CN(C)S(=O)(=O)c1cccc(C(=O)N2CCN(Cc3ccccc3)CC2)c1,5,-3.9%,-3%,5%
O=C(O)c1ccc(-n2cccc2)cc1O,-1,-0.1%,1%,-1%
Cc1cccc(-n2ccnc2CN2CCN(C(C)C)C(CCO)C2)c1 (stereo not drawn),-2,0.8%,0%,-1%
Cc1ccnc(NC(=O)C2CCN(S(=O)(=O)c3ccc(C)c(C)c3)CC2)c1,nt,-2.1%,nt,-4%
COc1ccc(CCNC(=O)C2CCN(S(=O)(=O)c3ccc(NC(C)=O)cc3)CC2)cc1OC,nt,0.3%,-2%,15%
CCOc1ccsc1C(=O)NNC(=O)c1ccco1,nt,1.7%,3%,1%
C/C(=N\NC(=O)Cn1nnc2ccccc21)c1ccco1,0,1.0%,-4%,-6%
COC(=O)c1ccc2c(=O)n(CCCCCC(=O)NCc3ccccc3)c(=O)[nH]c2c1,8,-0.2%,10%&-3%,-15%
Cc1ccc2c(Cn3cc(C(F)(F)F)cc(Cl)c3=O)cc(=O)oc2c1,-4,nt,2%,nt
COc1cccc(C(=O)N2CCCN(C)CC2)c1OC,nt,-0.4%,0%,-15%
Cn1c(=O)oc2cc(S(=O)(=O)N3CCC(C(=O)NCc4ccccc4Cl)CC3)ccc21,nt,-0.2%,-2%&-1%,-9%
CCNC(=O)Cc1c(OC)ccc2cc(Br)ccc12,-1,-0.5%,-7%,-2%
O=C(CNC(=O)c1ccccc1F)OCc1nc2ccccc2s1,-26,-1.2%,-25%,-5%
Cc1ncoc1C(=O)N1CCCC(N2CCN(c3ccccc3F)CC2)C1 (stereo not drawn),nt,-1.0%,-2%,-13%
COc1ccc(-c2nnc(SCC(=O)NC(=O)NCc3ccco3)o2)cc1,-9,-0.8%,-2%,-9%
COC(=O)Cn1cnc2scc(-c3ccc(C)c(C)c3)c2c1=O,nt,2.0%,1%,-18%
Cc1csc(NC(=O)CCNC(=O)c2ccccc2Cl)n1,10,1.3%,-4%,-7%
Cc1ccccc1C(=O)/C=C1/SCC(=O)N1C,10,-0.4%,-7%,16%
S=C(NCCc1ccccc1)Nc1ccc(Cl)cc1,-5,-1.5%,-35%,-15%
CCOc1ccc(OCCC(=O)NNC(=O)c2nn(C)c(=O)c3ccccc23)cc1,nt,0.3%,-1%,6%
CC1(c2ccccc2)NC(=O)N(CC(=O)Nc2ccc(Cl)c(S(=O)(=O)N3CCCCC3)c2)C1=O (stereo not drawn),nt,-0.7%,-1%,2%
Cc1cc(=O)oc2cc(NC(=O)C3CC(=O)N(Cc4ccccc4)C3)ccc12 (stereo not drawn),-7,-0.1%,-5%,-12%
CCC(=O)Nc1ccc(C(=O)COC(=O)Cc2ccsc2)cc1,nt,-3.1%,nt,-14%
COc1ccc(C2NC3=C(CCC3)C3(C#N)C4(N=C(N)C23C#N)OCCO4)cc1 (stereo not drawn),-5,-2.7%,-3%,16%
O=C(CSc1ncccn1)Nc1ccc(N2CCOCC2)cc1,8,0.3%,-1%,0%
Cn1cc(CN2CCC(CO)CC2)c(-c2ccc(Oc3ccccc3)cc2)n1,5,-0.5%,-2%,-8%
CC(C)(C)c1ccccc1OCCOCCN1CCCCCC1,-22,2.3%,-8%,4%
CC(=O)Nc1ccc(OC(=O)c2cc([N+](=O)[O-])ccc2Cl)cc1,2,0.6%,2%,4%
CCCCCCCCCCOC(=O)C[N+](C)(C)C/C=C(/C)Cl,3,6.2%,5%,-7%

# (further entries)
SMILES,GLA inh pH 4.5,Rango-impB inh,miR-21 FLuc,Rango release inh
CN1OC[C@@H]2CN(Cc3cc(Cl)cc(Cl)c3)[C@H](c3cccc(Oc4ccccc4)c3)C[C@@H]21,nt,4.9%,nt,16%
N#CCN1CCCC(C(N)=O)C1 (stereo not drawn),-1,-0.5%,-1%,-15%
COc1cc(C(=O)NCC(=O)OCc2ccccc2Cl)cc(OC)c1OC,2,-3.5%,-1%,12%
Nc1cc(C(F)(F)F)cc([N+](=O)[O-])c1N,-16,-0.6%,-7%,-10%
COc1cc([N+](=O)[O-])ccc1NC(=O)/C=C/C(=O)O,-9,-0.2%,4%,0%
C1CCN(c2nc(N3CCCCC3)nc(N3CCNCC3)n2)CC1,-6,-1.1%,1%,13%
Cc1ccc(C(=O)O)cc1[N+](=O)[O-],nt,-1.8%,nt,5%
CS(=O)(=O)N1CCCC(C(=O)NCCc2ccc(Cl)cc2)C1 (stereo not drawn),-6,1.9%,-3%,4%
COc1ccccc1Nc1ncnc2c1c(C)c(C)n2CCO,nt,0.9%,-75%,15%
O=C(O)Cn1c(SC2CCCCC2)nc2ccccc21,-4,-1.1%,-11%,3%
Cc1cc2occ(CC(=O)N(C)CC(=O)Nc3ccccc3Cl)c2cc1C,nt,0.1%,nt,-5%
Cc1ccc(NC(=S)N/N=C2\CC(C)(C)Oc3ccc(O)cc32)cc1,1,1.0%,13%,-23%
N#Cc1ccccc1CSc1ncccc1C(=O)O,nt,-3.3%,-1%,-1%
NC(=O)c1ccsc1NC(=O)COC(=O)COc1ccccc1[N+](=O)[O-],nt,0.1%,nt,-9%
COc1ccc(-c2cnc(SCC(=O)Nc3cc(C)on3)n2Cc2ccco2)cc1,2,-0.1%,-7%,-1%
COc1cc(NC(=S)NC(C)=O)ccc1NC(=O)C(C)C,0,0.7%,-27%,12%
Cc1ccc(S(=O)(=O)Nc2nc3ccccc3nc2N2CCN(c3ccccc3F)CC2)cc1,-5,-0.9%,-3%,-6%
CCCCCCn1c(N)c(C#N)c2ccc([N+](=O)[O-])cc2c1=O,7,?,-5%,?
O=C(CNC(=O)c1cccc(S(=O)(=O)N2CCc3ccccc32)c1)Nc1ccc(F)c(F)c1F,nt,-1.9%,nt,0%
COCCn1c(COc2ccc(OC)cc2)nc2ccccc21,-10,-0.5%,-44%,3%
O=S1(=O)[C@H]2C[C@@H]3C=C[C@@]2(CN1Cc1ccccc1F)O3,nt,1.7%,3%,1%
COC(=O)[C@H](Cc1c[nH]c2ccccc12)NC(=O)CCCc1c[nH]c2ccccc12,nt,2.7%,-2%,-7%
O=C(O)CCC(=O)N1CCN(c2ncccn2)CC1,-5,-0.3%,1%,-3%
COC(=O)CSc1n[nH]c(-c2ccncc2)n1,6,3.0%,-4%,-3%

# 6 of the compounds above, with bars between the fields:
mol | GLA inh pH 4.5 | Rango-impB inh | miR-21 FLuc | Rango release inh
COC(=O)CSc1n[nH]c(-c2ccncc2)n1 | 6 | 3.0% | -4% | -3%
COc1cc(NC(=S)NC(C)=O)ccc1NC(=O)C(C)C | 0 | 0.7% | -27% | 12%
N#Cc1ccccc1CSc1ncccc1C(=O)O | nt | -3.3% | -1% | -1%
COCCn1c(COc2ccc(OC)cc2)nc2ccccc21 | -10 | -0.5% | -44% | 3%
CCCCCCn1c(N)c(C#N)c2ccc([N+](=O)[O-])cc2c1=O | 7 | ? | -5% | ?
O=C(CNC(=O)c1cccc(S(=O)(=O)N2CCc3ccccc32)c1)Nc1ccc(F)c(F)c1F | nt | -1.9% | nt | 0%

# The listing continues.
SMILES,GLA inh pH 4.5,Rango-impB inh,miR-21 FLuc,Rango release inh
CN(c1ccccc1)S(=O)(=O)c1cccc(NC(=O)COc2ccccc2)c1,nt,-2.1%,nt,-3%
O=C(c1ccccc1OCc1ccc(Cl)cc1)N1CCN(c2ccccn2)CC1,nt,9.1%,nt,-5%
CN(CC(=O)Nc1ccc2c(c1)OCCO2)S(=O)(=O)c1cccc2cccnc12,5,-3.8%,-17%,-9%
COc1ccc(N2C(=O)c3ccccc3NC2c2ccc(OC)c(CSc3ccccn3)c2)cc1 (stereo not drawn),13,-1.5%,-47%,6%
COc1c([N+](=O)[O-])cc(C(=O)NNC(=O)c2ccc(C)cc2)cc1[N+](=O)[O-],nt,9.9%,4%,32%
O=C(CS(=O)(=O)c1ccccc1)Nc1ccccn1,-3,-0.3%,-4%,-1%
CC1(C)CC2CC(C)(CN2C(=O)c2cc(-c3ccccc3O)on2)C1 (stereo not drawn),-2,-1.8%,-4%,0%
CN1C(=O)NC(NC(=O)C2CCCCC2)(C(F)(F)F)C1=O (stereo not drawn),-2,-5.5%,3%,-3%
O=c1oc2ccccc2cc1-c1nc(-c2cccs2)cs1,3,?,-9%,?
Fc1ccccc1N1CCN(CCCNc2ccc3nncn3n2)CC1,2,-1.2%,-16%,0%
Cc1ccc(C2N(c3ccc(F)cc3)C(=O)C3CCCN32)cc1 (stereo not drawn),1,-4.7%,0%,5%
